High-throughput results from PubChem.
LASV entry inh = inhibitors of Lassa virus binding or cell entry; Lassa virus pseudotype entry inhibition, cell reporter; control for the full effect not named in the record; Potency, µM (doses to about 37.9 µM), for the others: at the highest dose activity change, negative = inhibition, hits mostly inhibitors; hit rate 1.2% among 300,000; active means well fitted inhibition curve with a large enough effect; inconclusive means small, poorly fitted or top-dose-only effect, or effect the other way; inactive means flat fitted curve, though single readings scatter; tested in HEK293 cells; note: % is set by controls: 0 for no effect and ±100 for the full control effect; nearly all actives have a fitted effect of over 50% in size; luciferase read-out
Marburg entry inh = inhibitors of Marburg virus binding or cell entry. Potency, µM (highest dose often 37.8 µM), for inactives: top-dose activity change, negative = inhibition, usual class: inhibitors. hit rate 1.8% among 300,000. Marburg virus pseudotyped entry inhibition, cell reporter; control for the full effect not named in the record; about a third of the inactives were read at about 46 µM; active = well fitted inhibition curve with a large enough effect; inconclusive = small, poorly fitted or top-dose-only effect, or effect the other way; inactive = flat fitted curve, though single readings scatter; tested in HEK293 cells; about a fifth of its hits are not listed in these tables; note: % is set by controls: 0 for no effect and ±100 for the full control effect; luciferase read-out
SARS PLpro yeast = SARS-CoV PLP inhibition in yeast; S. cerevisiae expressing SARS-CoV PLpro, growth rescue; control for the full effect not named in the record; Potency, µM (highest dose often 32.9 µM), without a hit: at the top dose activity, positive = growth rescue; hit rate 0.19% among 330,000; AID 485353; active means well fitted rising curve with a large enough effect; inconclusive means small, poorly fitted or top-dose-only effect; inactive means no such curve, though single readings can be large or run the other way; note: 0% is about no effect; nearly all actives have a fitted effect of over 55% in size; growth read by luminescence after 48 h
RE007 growth inh = less growth of the S. pombe RE007 Vpr strain; hit rate 0.21% among 360,000; Potency, µM (titrated, usually from 92.2 µM), without a hit: at the top dose activity change, negative = less growth; S. pombe RE007 Vpr strain, BacTiter-Glo ATP luminescence, 24 h; control for the full effect not named in the record; active = well fitted falling curve with a large enough effect; inconclusive = small, poorly fitted or top-dose-only effect; inactive = no such curve, though single readings can be large or run the other way;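 note: % is set by controls: 0 for no effect and ±100 for the full control effect; nearly all actives have a fitted effect of over 50% in size; the assay follows cell death caused by Vpr and the record does not say whether a fall means rescue or toxicity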
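Fission yeast strain RE007, carrying one chromosomally integrated HIV-1 vpr copy, was seeded at OD 0.01 in PMG+AL medium with 23 nL pinned compound. After 24 h at 30 °C and 99% humidity, viability was read by BacTiter-Glo luminescence.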
2A StopGo = lowers the luciferase signal of an FMDV 2A StopGo reporter. human cells with a luciferase reporter of 2A StopGo recoding; control for the full effect not named in the record. Potency, µM (highest dose often 57.9 µM), for the others: top-dose signal change, negative = less light. hit rate 1.2% among 410,000; active = well fitted falling curve with a large enough effect; inconclusive = small, poorly fitted or top-dose-only effect; inactive = no such curve, though single readings can be large or run the other way; tested in HEK293T cells; note: % is set by controls: 0 for no effect and ±100 for the full control effect; nearly all actives have a fitted effect of over 45% in size; luciferase light after 4 h
Cruzain Triton = blocks cruzain activity in presence of Triton detergent; P25779; purified cruzain, Z-FR-AMC fluorescence, 0.01% Triton; Potency, µM, for inactives: max response, negative = inhibition, hits mostly inhibitors; hit rate 0.43% among 200,000; AID 1478;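 note: plate controls were neutral wells for no effect and buffer without enzyme for full effect; nearly all actives have a fitted effect of over 40% in size; top concentration of the series not given in the record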
Target sequence (P25779 123-467 limits assumed): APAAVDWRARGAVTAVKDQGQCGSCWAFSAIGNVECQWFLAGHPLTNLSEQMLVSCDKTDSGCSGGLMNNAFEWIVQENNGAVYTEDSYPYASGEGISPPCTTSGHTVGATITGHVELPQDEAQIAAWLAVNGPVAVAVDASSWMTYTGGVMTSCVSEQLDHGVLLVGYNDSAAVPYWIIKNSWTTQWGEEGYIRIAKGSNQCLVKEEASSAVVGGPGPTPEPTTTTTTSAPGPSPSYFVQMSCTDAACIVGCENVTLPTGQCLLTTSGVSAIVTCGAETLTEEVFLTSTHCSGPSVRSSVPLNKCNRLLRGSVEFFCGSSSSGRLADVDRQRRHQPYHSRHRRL
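Purified cruzain (1.5 nM final) was preincubated with compounds for 15 min at room temperature in 100 mM sodium acetate pH 5.5, 5 mM DTT, 0.01% Triton X-100. Reaction started with 2 uM Z-FR-AMC; AMC fluorescence change over 60 s gave activity.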
Cruzain inh noDet = cruzain (T. cruzi) inhibition without detergent. Potency, µM, without a hit: max response, negative = inhibition, usual class: inhibitors. AID 1476. hit rate 2.3% among 200,000. purified cruzain, Z-FR-AMC fluorescence, no detergent. P25779;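 note: plate controls were enzyme without inhibitor for no effect and buffer without enzyme for full effect; nearly all actives have a fitted effect of over 40% in size; top concentration of the series not given in the record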
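Purified cruzain at 1.5 nM, pre-incubated 15 min with compound at room temperature in 100 mM sodium acetate pH 5.5, 5 mM DTT, 0.00005% Triton X-100. Reaction started with 2 uM Z-FR-AMC; AMC fluorescence increase over 60 s gives rate.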
NS1 inh = inhibitors of influenza NS1 protein function | Potency, µM (titrated, usually from 46.1 µM), for inactives: at the highest dose activity, positive = more growth | S. cerevisiae slowed by influenza A NS1, growth recovery by OD600 | hit rate 0.4% among 270,000; active means well fitted rising curve with a large enough effect; inconclusive means small, poorly fitted or top-dose-only effect; inactive means no such curve, though single readings can be large or run the other way; note: nearly all actives have a fitted effect of over 50% in size
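OD600 was taken as the measure of yeast growth restored by compound in an NS1-expressing S. cerevisiae strain. Cells had been washed out of glucose medium and diluted 1:100 into galactose -URA medium, pH 6.0.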
* marks the source's active call; other numbers are inactive results; u = inconclusive; x = not tested or not shown; & = joins results of further samples; [ ] = another dose, or the depositor's remark. Unless noted, calls come from the whole dose curve; as a rule, active = well fitted curve in the direction sought with a large enough effect; inconclusive = small, poorly fitted or top-dose-only effect, or another doubt; inactive = no such curve, though single readings can be large; an effect the other way counts as inactive or inconclusive. Potency is the fitted concentration of half-maximal effect. Rows are unselected, and some 4.5% of all compounds hit somewhere here.

SMILES	LASV entry inh	Marburg entry inh	SARS PLpro yeast	RE007 growth inh	2A StopGo	Cruzain Triton	Cruzain inh noDet	NS1 inh
Cc1cc(C)c(NC(=O)C(C)n2c(=O)c(C(F)(F)F)nc3ccccc32)c(C)c1 (configuration not stated)	u	x	x	x	4%	2.1%	-15%	x
Cc1cc2ncn(-c3ncnc4scc(-c5ccccc5)c34)c2cc1C	-15%	-25%	7%	3%	u	-4.4%	-4%	-72%
CCOC(=O)CSc1nc2cc(OC)c(OC)cc2c2nc(-c3ccccc3)nn12	16%[46.1 µM]	-15%[46.1 µM]	x	x	1%	1.0%	-4%	x
O=C(CS(=O)CC(=O)N(c1ccccc1)C(C(=O)NC1CCCCC1)c1ccco1)Nc1ccc(F)cc1 (configuration not stated)	-5%	-32%	-13%	-4%	-13%	0.6%	-25%	0%
O=C(N/N=C/c1ccc([N+](=O)[O-])o1)C1CCCC1	u	u	5%	-2%	-12%	x	x	-12%
O=C(NCC1CCCO1)c1cc2n(n1)C(C(F)(F)F)CC(c1ccc(Br)cc1)N2 (configuration not stated)	19%	5%&5%	-7%	-2%	-5%	-3.9%	15%	-3%
CC(C)c1ccc(C2C(C(=O)c3ccco3)=C(O)C(=O)N2CCN2CCOCC2)cc1 (configuration not stated)	1%	20%[46.1 µM]	1%	12%	30%	x	x	-1%
COc1cccc(NC(=O)C2CCN(S(=O)(=O)c3ccc4c(c3)NC(=O)CO4)CC2)c1	-15%[46.1 µM]	-1%[46.1 µM]	-2%	14%	-18%	x	x	2%
COc1ccc(OC)c(C2C(C(=O)O)c3ccccc3C(=O)N2C)c1 (configuration not stated)	7%	-3%	-4%	3%	-8%	1.2%	-5%	5%
COc1cccc(NC(=O)N2CCC(NC(=O)C3CCCCC3)CC2)c1	1%[46.1 µM]	8%[46.1 µM]	-2%	9%	-1%	x	x	-6%
CCOc1ccccc1N(CC(=O)Nc1ccc(OC)c(Cl)c1)S(=O)(=O)c1ccccc1	u	x	x	x	-7%	-2.0%	2%	x
COc1cccc(NC(=O)COC(=O)c2c(F)cccc2Cl)c1	-37%	u	-4%	-11%	49%[activator]	x	x	-3%
O=C(c1cc(-c2ccc(F)cc2)on1)N1CCN(c2ccc(F)cc2)CC1	u	-2%&-6%[46.1 µM]	-2%	-8%	-9%&-1%	-2.1%	-10%	6%
O=C(Nc1nnc(CCc2ccccc2)s1)c1ccccc1	x	x	-3%	u	56%[activator]	x	x	-39%
Cc1nc2ccccn2c1P(=O)(N1CCCCC1)N1CCCCC1	u	5%	22%	-9%	x	1.9%	6%	5%
O=C(CSc1nc2cc([N+](=O)[O-])ccc2n1-c1ccc(F)cc1)NC1CCS(=O)(=O)C1 (configuration not stated)	-4%	-1%	-15%	-11%	-24%	-4.9%	20%	-30%
Cc1cc(C(=O)COC(=O)c2ccc[nH]c2=O)c(C)n1C	0%	-4%	-3%	6%	24%	-5.4%	-1%	6%
CNC(=O)c1ccsc1NC(=O)CS(=O)(=O)c1ccc(Cl)cc1	x	x	6%	0%	-7%	x	x	25%
CN1C(=O)c2ccccc2Sc2ccc(NC(=O)COc3ccc(F)cc3)cc21	u	x	x	x	-18%	-3.7%	-9%	x
CCOc1ccccc1NC(=O)C1CCC(CNS(=O)(=O)c2ccc3c(c2)CCCC(=O)N3)CC1 (configuration not stated)	-5%[46.1 µM]	x	x	x	-6%	-0.6%	7%	x

The list goes on, starting with the last 6 of the part before.
SMILES	LASV entry inh	Marburg entry inh	SARS PLpro yeast	RE007 growth inh	2A StopGo	Cruzain Triton	Cruzain inh noDet	NS1 inh
Cc1nc2ccccn2c1P(=O)(N1CCCCC1)N1CCCCC1	u	5%	22%	-9%	x	1.9%	6%	5%
O=C(CSc1nc2cc([N+](=O)[O-])ccc2n1-c1ccc(F)cc1)NC1CCS(=O)(=O)C1 (configuration not stated)	-4%	-1%	-15%	-11%	-24%	-4.9%	20%	-30%
Cc1cc(C(=O)COC(=O)c2ccc[nH]c2=O)c(C)n1C	0%	-4%	-3%	6%	24%	-5.4%	-1%	6%
CNC(=O)c1ccsc1NC(=O)CS(=O)(=O)c1ccc(Cl)cc1	x	x	6%	0%	-7%	x	x	25%
CN1C(=O)c2ccccc2Sc2ccc(NC(=O)COc3ccc(F)cc3)cc21	u	x	x	x	-18%	-3.7%	-9%	x
CCOc1ccccc1NC(=O)C1CCC(CNS(=O)(=O)c2ccc3c(c2)CCCC(=O)N3)CC1 (configuration not stated)	-5%[46.1 µM]	x	x	x	-6%	-0.6%	7%	x
CC1CCCC(C)N1S(=O)(=O)c1ccc(S(=O)(=O)N2CCOCC2)cc1 (configuration not stated)	x	x	2%	-2%	3%	x	x	1%
CC1CCCCC12NC(=O)N(CC(=O)NCc1ccccc1Cl)C2=O (configuration not stated)	6%	-1%	0%	-9%	3%	x	x	x
CSc1ccc(CCNC(=O)CCc2c(C)nc3c(c(C)nn3-c3ccccc3)c2C)cc1	3%[46.1 µM]	12%[46.1 µM]	x	x	-10%	-2.3%	-3%	x
Cc1cc(NC(=O)Nc2csc3c2CCCC3)ccc1Br	x	0%[46.1 µM]	x	x	-18%	-2.4%	-6%	x
Cn1nc(N)c2c(-c3ccccc3)c(C#N)c(N)nc21	2%	-12%	8%	0%	-14%	-0.4%	7%	-3%
Cc1nc2sccn2c(=O)c1S(=O)(=O)NCc1ccccc1Cl	x	x	12%	-2%	11%	x	x	7%
Fc1ccc(Nc2nc(SCc3ccccc3F)nc3ccccc23)cc1	4%[46.1 µM]	x	x	x	-27%	-4.5%	-8%	x
O=C(O)C1Cc2ccccc2-c2ccccc2C1	x	x	-1%	3%	1%	x	x	-53%
CCCCNC(=O)CN(c1cccc(Br)c1)S(C)(=O)=O	-7%	10%	3%	-2%	27%	-0.6%	8%	5%
c1coc(-c2ccnc3nc(-n4cccc4)nn23)c1	9%	14%[46.1 µM]	0%	8%	5%	x	x	x
COc1cccc(OC)c1OCCCCN1CCC(Cc2ccccc2)CC1	u	u	-1%	-20%	-28%	x	x	-3%
COc1ccc(/C=C/C(=O)N2CCC(c3nc4ccccc4o3)CC2)cc1OC	-15%[46.1 µM]	22%[46.1 µM]	x	x	-19%	-6.6%	2%	x
O=C(O)CCCCCNS(=O)(=O)c1ccc2c3c(cccc13)C(=O)N2	-1%	-2%	3%	1%	-5%	x	x	11%
O=C(CCNS(=O)(=O)c1ccc(OC(F)(F)F)cc1)N1CCN(C/C=C/c2ccccc2)CC1	u	u	-5%	-1%	u	x	x	-18%
O=C(N1CCN(c2ccccc2)CC1)C1(c2cccs2)CCOCC1	-2%	7%	5%	13%	u	-2.8%	-9%	4%
CCOC(=O)c1c(C)[nH]c(C)c1S(=O)(=O)N1CCN(c2ccc(Cl)cc2)CC1	-6%[46.1 µM]	x	x	x	-9%	-8.4%	17%	x
CN(C)c1ccc(NC(=O)CSc2nnc(-c3ccco3)c(-c3ccco3)n2)cc1	u	-19%[46.1 µM]	-2%	-3%	0%	x	x	-4%
CCOC(=O)CC(NC(=O)N1CCC(CN2CCC(C)CC2)CC1)c1ccccc1 (configuration not stated)	u	x	x	x	-9%	2.6%	-2%	x
Fc1ccc(-c2cc(C(F)(F)C(F)F)[nH]n2)cc1	6%	-8%[14.2 µM]	-1%	-24%	0%	x	x	0%
O=C(N/C(=C\c1ccc(Cl)cc1)C(=O)N1CCOCC1)c1ccco1	2%[46.1 µM]	-22%[46.1 µM]	2%	1%	14%	x	x	4%
CC1CCCCN1S(=O)(=O)c1ccc(NC(=O)CSc2nnnn2C)cc1 (configuration not stated)	4%	-1%	-7%	-6%	6%	-2.3%	-2%	2%
COc1ccc2c(c1)c1c(c(=O)n(-c3cccc(C)c3)c(=O)n1CC(=O)N1CCCC1)n2C	-5%[46.1 µM]	x	x	x	-23%	-2.2%	-12%	x
CNC(=O)NC(=O)CSc1nnc(-c2ccco2)n1-c1ccccc1	x	x	-5%	14%	-3%	x	x	-1%
CC(=O)Nc1ccc(NC(=O)Nc2cccc3ccccc23)cc1	x	x	-4%	3%	2%	x	x	-6%
c1ccc2c(c1)nnn2Cc1nnc2sc(-c3ccncc3)nn12	3%	1%	-5%	-18%	-11%	3.7%	0%	-8%
Cc1cccc(OCCC(=O)N(C)CC(=O)Nc2cccc3ccccc23)c1	x	x	-4%	-8%	-19%	0.9%	11%	-4%
COc1cccc(CNC(=O)CCCN2C(=O)CCn3nc(-c4cccn4C)cc32)c1	11%[46.1 µM]	x	x	x	-17%	-0.9%	0%	x
COC(=O)c1c(NC(=O)COc2c(C)ccc(C)c2C)sc2c1CCC(C)C2 (configuration not stated)	25%[46.1 µM]	0%[46.1 µM]	x	x	-28%	-0.9%	-3%	x
Cc1cccc(OCC(=O)N(Cc2ccc(C(C)C)cc2)Cc2ccco2)c1C	u	1%[46.1 µM]	x	x	u	-7.7%	-15%	x
CC1=C(C(=O)Nc2ccccc2C)C(c2ccccn2)n2nc(SCc3ccccc3F)nc2N1 (configuration not stated)	-1%[46.1 µM]	21%[46.1 µM]	x	x	-2%	2.4%	2%	x
CCC(C(=O)Nc1cccnc1)n1c(=O)[nH]c2ccccc2c1=O (configuration not stated)	x	x	3%	-5%	-20%	x	x	-4%
CCN(CC)S(=O)(=O)c1nnc(NC(=O)c2ccco2)s1	-1%[46.1 µM]	5%[46.1 µM]	-6%	4%	45%[activator]	x	x	-34%

Entries of single compounds from above. Order of values: LASV entry inh | Marburg entry inh | SARS PLpro yeast | RE007 growth inh | 2A StopGo | Cruzain Triton | Cruzain inh noDet | NS1 inh
Entry for CC1CCCCN1S(=O)(=O)c1ccc(NC(=O)CSc2nnnn2C)cc1 (configuration not stated) = 4% | -1% | -7% | -6% | 6% | -2.3% | -2% | 2%
Entry for Cc1cccc(OCC(=O)N(Cc2ccc(C(C)C)cc2)Cc2ccco2)c1C = u | 1%[46.1 µM] | x | x | u | -7.7% | -15% | x
